Screening results from PubChem.
KCNQ2 enhance – potentiators of rat KCNQ2 potassium channel; B-score at 10 µM; Potassium voltage-gated channel subfamily KQT member 2 (Rattus norvegicus), O88943; CHO-K1 KCNQ2, FluxOR thallium flux fluorescence; stronger effect = higher value; hit rate 0.54% among 310,000;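 active = fluorescence ratio B-score at least 3 SD of library B-scores, with initial fluorescence B-score within 3 SD, cut at about 5.3 in these data; same plate scores as AID 2156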;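 note: B-score of peak minus minimum over baseline fluorescence ratio after K+ and Tl+ stimulus; positive B-score means potentiation of KCNQ2 with more thallium influx and brighter signal; only the inactives scoring about 0 or higher are listed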
Target sequence (O88943 whole entry, looked up): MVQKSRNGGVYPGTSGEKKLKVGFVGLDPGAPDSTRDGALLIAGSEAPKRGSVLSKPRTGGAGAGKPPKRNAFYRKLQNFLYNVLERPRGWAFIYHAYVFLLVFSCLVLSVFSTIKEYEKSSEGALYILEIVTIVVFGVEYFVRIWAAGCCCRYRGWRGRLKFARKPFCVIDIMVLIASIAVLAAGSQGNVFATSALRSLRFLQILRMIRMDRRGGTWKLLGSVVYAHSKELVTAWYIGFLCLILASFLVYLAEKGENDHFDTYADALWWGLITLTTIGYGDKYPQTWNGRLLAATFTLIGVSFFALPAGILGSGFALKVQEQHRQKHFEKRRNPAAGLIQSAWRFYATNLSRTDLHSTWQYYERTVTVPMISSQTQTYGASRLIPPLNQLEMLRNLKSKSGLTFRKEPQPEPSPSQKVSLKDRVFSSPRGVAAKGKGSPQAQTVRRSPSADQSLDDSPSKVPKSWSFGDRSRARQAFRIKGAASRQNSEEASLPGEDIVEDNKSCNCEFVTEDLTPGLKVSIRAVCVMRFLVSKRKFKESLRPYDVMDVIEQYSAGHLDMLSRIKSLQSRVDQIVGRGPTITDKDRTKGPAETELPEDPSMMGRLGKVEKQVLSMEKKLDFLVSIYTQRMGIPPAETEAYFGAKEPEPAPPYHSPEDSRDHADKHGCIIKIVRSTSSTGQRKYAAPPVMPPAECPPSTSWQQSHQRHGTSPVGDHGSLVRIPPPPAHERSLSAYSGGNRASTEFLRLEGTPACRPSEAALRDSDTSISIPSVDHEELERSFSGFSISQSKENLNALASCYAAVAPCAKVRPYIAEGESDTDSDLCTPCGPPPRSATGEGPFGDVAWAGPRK
KCNQ2 enhance baseline – further read-out of KCNQ2 enhance, marked with its call; B-score; compound at 10 µM; measured here: initial fluorescence intensity artifact check;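 brightness before thallium and not channel activity; 0 = typical well and far values either way flag optical interference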
Active calls of the source: *.

Each structure is followed by: KCNQ2 enhance	KCNQ2 enhance baseline
O/N=C/c1ccc2cccc(OCc3ccccc3)c2n1
 : 0.03	0.11
CCC(=O)c1ccc(N2CCN(C(=O)c3cccs3)CC2)c(F)c1
 : 0.79	0
CCOC(=O)c1nnn(-c2nonc2N)c1CN1CCCCCC1
 : 1.9	-0.39
CCOC(=O)c1cccc(-n2c(-c3ccc(OC)cc3)nc3nc4ccccc4nc32)c1
 : 0.24	-1.6
O=C(Nc1ccc(O)c(C(=O)O)c1)c1ccc2c(c1)C(=O)N(CC1CCCO1)C2=O (stereo not given)
 : 0.01	-0.33
CCOC(=O)c1c(-n2cccc2)sc2c1CCCC2=O
 : 0.83	1.6
Cn1cnnc1SCC(=O)NNC(=O)COc1ccc(Cl)cc1
 : 0.19	0.59
COc1cc(/C=N/NC(=O)Cc2csc(N3CCOCC3)n2)cc(OC)c1O
 : 1.3	-0.01
O=C(Nn1c(C2CCCCC2)nc2ccccc2c1=O)c1ccc([N+](=O)[O-])cc1Cl
 : 0.87	0.26
CC(C)CCNc1nc(N)c([N+](=O)[O-])c(NCCO)n1
 : 1.6	-2
O=C(NN1C(=O)C2C3C=CC(C4CC34)C2C1=O)c1cccc(Cl)c1 (stereo not given)
 : 0.64	-0.72
COCCn1nnnc1C(c1ccc(OC)cc1)N1CCC(C)CC1 (stereo not given)
 : 1.7	0.3
COc1ccc(N2CCN(C(=O)COC(=O)c3cnccn3)CC2)cc1
 : 0.68	0.47
O=C1NCC2=C1C(c1ccccc1)Nc1ccccc1N2 (stereo not given)
 : 1.1	-0.25
CN(CC(=O)NCCc1ccccn1)S(=O)(=O)c1ccc(Cl)cc1
 : 0.26	0

Reformatted: three of the compounds above
SMILES	KCNQ2 enhance	KCNQ2 enhance baseline
O/N=C/c1ccc2cccc(OCc3ccccc3)c2n1	0.03	0.11
CC(C)CCNc1nc(N)c([N+](=O)[O-])c(NCCO)n1	1.6	-2
COCCn1nnnc1C(c1ccc(OC)cc1)N1CCC(C)CC1 (stereo not given)	1.7	0.3

Other compounds:
Each structure is followed by: KCNQ2 enhance	KCNQ2 enhance baseline
CC(C)Oc1ccc(C(CC(=O)N(C)CCC#N)c2ccc(F)cc2)cc1 (stereo not given)
 : 0.26	0.1
CCn1c(SCc2ccccc2)nnc1C1CCN(S(=O)(=O)c2ccc(OC)cc2)CC1
 : 0.74	0.32
COc1ccc(N(CC(=O)N2CCN(Cc3ccc4c(c3)OCO4)CC2)S(C)(=O)=O)cc1OC
 : 1.5	-1.7
CCOC(=O)c1cnc2nc(C)[nH]n2c1=O
 : 0.08	-0.46
CN(CCO)c1ncnc2nc[nH]c12
 : 1	0.26
CCN(c1ccccc1)S(=O)(=O)c1ccc(OC)c(NC(=O)COc2ccc(C(C)=O)cc2)c1
 : 0.32	0.77
ONC(=Nc1ccccc1Cl)c1c(F)cccc1F
 : 0.14	2.7
O=C(N/N=C/c1ccc(OC(F)F)cc1)c1cc[n+]([O-])cc1
 : 0.88	0.53
O=C(Cn1ccc([N+](=O)[O-])n1)NCCc1c[nH]c2ccccc12
 : 0.47	-2
CC(=O)Nc1ccc(S(=O)(=O)N2CCN(c3ccc(C)c(Cl)c3)CC2)cc1
 : 0.56	2.3
CCC(=O)Nc1ccc(C(=O)NNC(=O)c2cc(OC)c(OC)c(OC)c2)cc1
 : 0.08	0.6
COC(=O)c1cnn(-c2nc3c(C)cccc3s2)c1C
 : 1.5	0.32
CCc1c(C(=O)NNC(=S)NCc2ccccc2)csc1C
 : 0.82	0.12
NC(=O)N/N=C/c1ccccc1OCc1cccc2ccccc12
 : 0.42	-1.5
CCn1c(C)nc2cc(C(=O)N/N=C/c3ccccc3C)ccc21
 : 2	-0.05

(more compounds)
Each structure is followed by: KCNQ2 enhance	KCNQ2 enhance baseline
COc1ccc(CNC(=S)NCc2ccc(F)cc2)cc1OC
 : 0.77	-0.89
COc1cc(SC)ccc1C(=O)Nc1ccncc1
 : 0.08	0.7
Cc1ccccc1OCC(=O)Nc1ccc([N+](=O)[O-])cc1
 : 1.7	-0.88
Fc1cc(F)c2nc(Nc3nc4cc5c(cc4s3)OCO5)sc2c1
 : 1.2	-0.46
CC(C(=O)N1c2ccccc2Sc2ccccc21)n1nnc(-c2cccs2)n1 (stereo not given)
 : 0.15	-0.4
CCCC(=O)Nc1cccc(-c2cn3cccnc3n2)c1
 : 0.68	-0.71
COC(=O)COc1ccc(S(=O)(=O)N2CCc3ccccc3C2)cc1C
 : 0.11	-0.03
CNC(=S)Nc1cccc2[nH]ncc12
 : 0.54	-0.28
CCOc1ccccc1N1CC(C(=O)NCCc2ccc(S(N)(=O)=O)cc2)CC1=O (stereo not given)
 : 1.3	-0.73
CC(=O)Nc1ccc(NC(=O)COC(=O)c2cc(S(=O)(=O)N(C)C)ccc2N2CCCC2)cc1
 : 0.02	0.24
Nc1ccc(N2CCCCC2)c2nonc12
 : 0.3	-2.7
Cc1nc2oc3ccc(Cl)cc3c(=O)c2cc1C(=O)O
 : 0.25	3.1
CCOc1cc2[nH]c(=S)n(CC3CCCO3)c(=O)c2cc1OCC (stereo not given)
 : 1.4	-0.84
O=C(CCC(=O)Nc1ccc(F)cc1)N/N=C/c1ccccc1O
 : 1.1	-0.39
Cn1c(Cn2c(=O)sc3ccccc32)nnc1SCC(=O)NC1CCCCC1
 : 0.51	1.2

New compounds follow.
Each structure is followed by: KCNQ2 enhance	KCNQ2 enhance baseline
c1ccc(CNC2=NCCC2)nc1
 : 0.14	0.48
COc1ccc(NC(=O)CCOc2ccccc2C)cc1S(=O)(=O)N1CCCCC1
 : 1.7	0.51
COc1ccc(S(=O)(=O)N2CCN3CCCC3C2)cc1 (stereo not given)
 : 0.16	-1.7
O=C(CCN1C(=O)c2ccc([N+](=O)[O-])cc2C1=O)Nc1nccs1
 : 0.46	-0.05
Cc1ccc(S(=O)(=O)NNC(=O)Cc2cccn2C)cc1
 : 0.3	-1.3
NC(=O)c1cc2c(s1)-c1cc(Cl)ccc1SC2
 : 0.23	-0.87
CN1CCCC(C(=O)C(C#N)c2ccccc2)C1 (stereo not given)
 : 0.26	-0.47
CC(C)Cc1nnc(NC(=O)Cc2ccccc2[N+](=O)[O-])s1
 : 0.69	-0.25
CCCCn1c(SCC(=O)N2CCc3ccccc32)nnc1-c1ccncc1
 : 1.5	1.3
CC(Oc1ccc(Cl)cc1Cl)c1nc(-c2ccc(NC(=O)c3cccnc3)cc2)no1 (stereo not given)
 : 1.3	-0.15
O=C(NCc1cccnc1)C(C(=O)c1ccc(F)cc1)n1ccccc1=O (stereo not given)
 : 1.4	-0.1
Cc1ccc(C2=NS(=O)(=O)N(C)C(C(=O)N3CCCCC3)=C2)cc1
 : 0.94	0.93
C=CCn1c(=O)[nH]c2cc(C(=O)N3CCN(c4cccc(Cl)c4)CC3)ccc2c1=O
 : 1.1	1.5
COc1cccc(OC(=O)CSc2nnc(-c3ccccc3Br)o2)c1
 : 0.49	-1.6
CC1C(=O)N2CCCc3cc(S(=O)(=O)N4CCC(C(N)=O)CC4)cc1c32 (stereo not given)
 : 0.23	-3.5

Additional compounds
Each structure is followed by: KCNQ2 enhance	KCNQ2 enhance baseline
COC(C/C=C\[C@@H](O)[C@H](C)OCc1ccccc1)OC
 : 1.1	-0.01
O=C(CSc1nnc(C23CC4CC(CC(C4)C2)C3)o1)Nc1ccc(N2CCOCC2)c(Cl)c1
 : 0.54	-0.37
Cc1nonc1NC(=O)N1CCCC1
 : 0.94	-0.49
Cc1ccc(S(=O)(=O)Nc2ccc(NC(=O)Nc3ccc(F)cc3F)cc2)cc1
 : 0.62	1.5
N#C/C(=C\c1ccccc1OCc1ccc(C(=O)O)cc1)c1ccccc1
 : 0.19	-0.57
Cc1cc(C)cc(Oc2nc3ccccn3c(=O)c2/C=C(\C#N)C(=O)NC2CCS(=O)(=O)C2)c1 (stereo not given)
 : 0.83	-0.59
Cc1ccc(C(CNS(=O)(=O)c2cc(F)ccc2F)N2CCN(C)CC2)cc1 (stereo not given)
 : 1.3	0.95
O=C(NC(=S)Nc1ccc(Cl)c(C(=O)O)c1)c1ccco1
 : 0.31	-0.19
CCOc1cc(NS(=O)(=O)c2ccc(NC(C)=O)cc2)c(OCC)cc1NC(=O)c1cccs1
 : 1.1	-0.27
Cn1c(CNC(=O)CCNC(=O)c2ccc(Br)cc2)cc(=O)n(C)c1=O
 : 0.69	2.4
Cc1c(OCC(=O)N2CCC(C(N)=O)CC2)ccc2c3c(c(=O)oc12)CCC3
 : 0.97	0.97
CC12CCC(C(=O)N(CCCCN3CCN(Cc4ccccc4)CC3)C1=O)C2(C)C (stereo not given)
 : 0.02	-0.05
COc1ccc(/C=N/n2c(-c3n[nH]c4c3CCC4)n[nH]c2=S)cc1OC
 : 0.69	-0.83
CCCNC(=O)c1cccc(NC(=O)C(C)C)c1
 : 0.14	0.09
COc1ccc(NC2=C(c3ccc(OC)cc3)C(=O)c3ccccc32)cc1
 : 0.77	-1.1

Carrying on:
Each structure is followed by: KCNQ2 enhance	KCNQ2 enhance baseline
CN(C(=O)COC(=O)/C=C/c1ccc2ccccc2n1)C1CCS(=O)(=O)C1 (stereo not given)
 : 0.93	0.14
CCc1nnc(NC(=O)CSc2nnc(-c3ccncc3)n2C)s1
 : 1.2	0.01
CN=C(Nc1ccc(Br)cc1)SC1CC(=O)N(c2ccc(OC)cc2)C1=O (stereo not given)
 : 0.07	-1.3
CC(C)CNc1ncnc2c1cnn2Cc1ccc(Cl)cc1
 : 1.8	0.02
CCOC(=O)CC1=CC(=O)Nc2ccccc2N1
 : 1.3	-2.4
CC(C)COC(=O)n1ccc(C(=O)N2CCCCC2)n1
 : 0.76	-0.87
COC(=O)C(C)N(C#N)c1nc(C)cc(C)n1 (stereo not given)
 : 1.1	-0.39
COc1ccc2oc(C(=O)C3CC3)c(N)c2c1
 : 2.7	-0.1
Cc1ccc(OCC(=O)OCc2c(C)noc2C)cc1C
 : 1.2	-0.1
O=C(c1cc(F)cc2c1OCOC2)N1CCN(c2ccc(F)cc2)CC1
 : 1.2	-1
Cc1ccccc1OCC(=O)NNC(=O)CSc1nc(N)cc(N)n1
 : 1.6	0.01
CCN(CC)CCn1c(-c2ccccc2)nc(=S)c2c1CC(C)(C)OC2
 : 2.3	-1.5
O=S1(=O)CCOC[C@H](Cc2ccccc2)N1Cc1cccc(F)c1
 : 0.48	-2.3
COc1ccc(C2CC(=O)C3=C(C2)Nc2ccccc2N(C(=O)CCC(=O)O)C3c2ccc(F)cc2)cc1OC (stereo not given)
 : 0.42	-0.51
COc1cc2nc(CN3CCC(C(O)(c4ccccc4)c4ccccc4)CC3)[nH]c(=O)c2cc1OC
 : 0.77	-1

As a short view, part of the list above:
Each structure is followed by: KCNQ2 enhance	KCNQ2 enhance baseline
CN(C(=O)COC(=O)/C=C/c1ccc2ccccc2n1)C1CCS(=O)(=O)C1 (stereo not given)
 : 0.93	0.14
CCc1nnc(NC(=O)CSc2nnc(-c3ccncc3)n2C)s1
 : 1.2	0.01

Carrying on:
Each structure is followed by: KCNQ2 enhance	KCNQ2 enhance baseline
Cc1cc(N2C(=O)C3C4c5ccccc5C(c5ccccc54)C3C2=O)no1 (stereo not given)
 : 2.7	0.93
COc1ccc(CCN(CC(=O)NCc2ccc(F)cc2)C(=O)c2snc(C(N)=O)c2N)cc1OC
 : 0.22	1.1
CC(=O)c1cc2c(cc1NC(=O)c1ccccc1C)OCO2
 : 0.19	0.71
COc1ccc(N2CCN(C(c3nnnn3CCc3ccccc3)C(C)C)CC2)cc1 (stereo not given)
 : 0.13	0.21
COc1ccc(CCNC(=O)C(=O)NCC2OCCN2S(=O)(=O)c2ccc(Br)cc2)cc1OC (stereo not given)
 : 1.5	-0.05
FC(F)(F)c1ccc(N2CCOCC2)c(NC2=NCCCCC2)c1
 : 1.6	-0.01
CCCc1nnc(NC(=O)CCC(=O)N2CCCCCC2)s1
 : 1.7	0
COc1ccc(OC)c(C(C)NC(=S)Nc2ccc(S(=O)(=O)Nc3ncccn3)cc2)c1 (stereo not given)
 : 2.3	-1.1
COc1ccc(OC)c(NC(=O)CSc2nc(=O)n(CCN3CCOCC3)c3c2CCCC3)c1
 : 0.41	-0.12
CC1(C)CC(=O)C(CCCN2C(=O)c3ccccc3C2=O)C(=O)C1
 : 0.14	0.03
NS(=O)(=O)c1ccc(N=Cc2c(O)n(-c3nccs3)c(=O)c3ccccc23)cc1
 : 0.08	1
Cn1cnnc1SCC(=O)N1CCc2ccccc21
 : 0.54	1.5
CC(=O)Nc1cccc(NC(=O)c2c(-c3c(Cl)cccc3Cl)noc2C)c1
 : 0.53	-0.14
O=C(O)CC(c1cccc2ccccc12)N1Cc2ccccc2C1=O (stereo not given)
 : 0.02	1.3
COCC(=O)Nc1ccc(Br)cc1
 : 0.02	-2.2

(further entries)
Each structure is followed by: KCNQ2 enhance	KCNQ2 enhance baseline
CC(=O)Nc1ccc(S(=O)(=O)NCc2cccnc2)cc1
 : 0.07	0.05
Cc1ccc(C)c(OCC(=O)Nc2cc(NC(=O)COc3cc(C)ccc3C)cc(C(=O)O)c2)c1
 : 1	-1.2
Cc1ccc(C(=O)OC2OC(=O)C(Cl)=C2N2CCOCC2)cc1 (stereo not given)
 : 1.8	-1.1
O=C(CSc1nc2ccccc2s1)N/N=C/c1ccccc1C(=O)O
 : 0.65	-1.1
COc1ccc(NC(=O)c2ccc3c(c2)NC(=O)CO3)cc1OC
 : 0.46	0.54
CC(=O)c1ccc(OC(C)C)c(CN2CCCCC2)c1
 : 1.3	0.07
Cc1ccc2c(c1)Oc1ccc(NC(=O)CCCl)cc1C(=O)N2
 : 0.25	3
Cc1cc(C(=O)CSc2nc(N)cc(=O)[nH]2)c(C)n1CCc1ccc(Cl)cc1
 : 0.43	-2.2
Cc1ccc(CNC(=O)CSc2nnnn2C)cc1
 : 0.45	1.2

An excerpt (hit frequency here may not be typical).
